Compound activity as filed in PubChem BioAssay.
Mtb H37Rv: M. tuberculosis H37Rv growth inhibitors, H37Rv strain (AID 1626). M. tuberculosis H37Rv growth inhibition; higher % means a stronger effect. inhibition, % at 10 µM, or IC50 in µM where a hit was titrated. 220,000 tested, 0.95% active;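 active = confirmed in a dose series; inconclusive = inhibition above 80% but not taken into the dose series; inactive = below 80% or under 30% at every dose of the series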;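 note: bacteria incubated seven days before Alamar blue readout; 0% = bacteria only wells and 100% = bacteria with antibiotic wells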
Arbovirus inh: arbovirus infection inhibition; arbovirus infection cell-based antiviral screen; inhibition, % at 10 µM; 200,000 tested, 0.37% active;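 active = inhibition from about 30%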;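 note: bluetongue infection of BSR cells; cell survival read as ATP light after 72 h; 0% = infected wells without compound and 100% = uninfected wells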
Mtb bLac sens: beta-lactam sensitization of Mtb H37Rv; M. tuberculosis H37Rv growth with meropenem, percent inhibition; hits of this screen are not shown here; inhibition, % at 25 µM; 330,000 tested, 0.27% active; AID 434955;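 active = about 74% or more and at least 40 points above the plate without the antibiotic, then above 30% in a dose series; inconclusive = first-round hits that could not be retested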;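 note: growth measured after seven days incubation then overnight dye step; 0% = bacteria only wells and 100% = bacteria with antibiotic; twin plates without the antibiotic show which effects depend on it; some results filed as inactive read as strong as hits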
YopH inh: YopH (Yersinia) phosphatase inhibition; fluorescence Ex485/Em525; inhibition, %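 (about 10 µM by stock and volumes)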; 140,000 tested, 0.16% active; AID 898;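 active = inhibition of 50% or more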;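 note: controls were vehicle for no effect and minimum signal wells for full effect; inactives centre near -20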
RecA splice inh: Mtb RecA intein splicing inhibition; cell-free RecA intein splicing, fluorescence; inhibition, %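 (about 9 µM by stock and volumes)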; 290,000 tested, 0.75% active; AID 2221; in the data active = inhibition above about 30%; inconclusive = no clear call, values can overlap the other calls;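 note: 0% = vehicle wells and 100% = reference inhibitor control wells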
Target sequence (P9WHJ3 whole entry, looked up, canonical isoform): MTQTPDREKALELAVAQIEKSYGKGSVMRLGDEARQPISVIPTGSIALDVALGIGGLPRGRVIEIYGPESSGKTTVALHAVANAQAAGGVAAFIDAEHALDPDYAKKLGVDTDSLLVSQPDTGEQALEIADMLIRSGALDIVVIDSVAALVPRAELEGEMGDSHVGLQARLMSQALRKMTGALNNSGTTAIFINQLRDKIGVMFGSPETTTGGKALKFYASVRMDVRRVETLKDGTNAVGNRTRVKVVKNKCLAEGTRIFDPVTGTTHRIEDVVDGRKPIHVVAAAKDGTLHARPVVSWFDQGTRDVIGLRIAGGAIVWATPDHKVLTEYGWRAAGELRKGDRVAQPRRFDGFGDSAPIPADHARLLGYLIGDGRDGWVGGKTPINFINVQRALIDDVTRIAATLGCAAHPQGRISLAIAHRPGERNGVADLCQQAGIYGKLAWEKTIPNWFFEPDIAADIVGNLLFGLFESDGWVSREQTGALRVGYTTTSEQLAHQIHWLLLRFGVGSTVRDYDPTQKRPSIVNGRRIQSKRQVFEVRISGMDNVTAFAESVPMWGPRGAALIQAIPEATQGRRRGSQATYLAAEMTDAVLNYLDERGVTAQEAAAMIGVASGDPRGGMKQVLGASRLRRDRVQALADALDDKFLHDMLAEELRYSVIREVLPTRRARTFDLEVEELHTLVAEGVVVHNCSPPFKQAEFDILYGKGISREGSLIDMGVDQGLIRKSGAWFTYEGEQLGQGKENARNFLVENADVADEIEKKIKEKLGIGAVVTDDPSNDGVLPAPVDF
* hit, by the source's call; ? = inconclusive; . = no result given. This is a subset. The share of hits here may be higher or lower than overall.

Each structure is followed by: YopH inh	RecA splice inh	Arbovirus inh	Mtb bLac sens	Mtb H37Rv
- CCCc1ccc2oc(C(=O)N3CCC(O)CC3)c(C)c2c1
 : .	5.7	.	2	.
- COc1cccc(C(=O)OCCN2CCOCC2)c1
 : .	0.0	4	3	.
- O=C(CCCCCNc1nc(=S)[nH]c2ccccc12)N1CCN(c2ccccn2)CC1
 : -30	-4.4	-8	91	46%
- Cc1nc(COc2ccccc2Cl)sc1-c1ccnc(N)n1
 : .	1.3	.	13	-4%
- N#C/C(=C/c1ccc(-c2ccccc2[N+](=O)[O-])o1)C(=O)NCCN1CCCCC1
 : .	.	.	-3	2%
- O=C(N/N=C/c1coc2ccc(Cl)cc2c1=O)c1cc(O)cc(O)c1
 : .	3.6	.	9	.
- COCCNC(=O)C(OC(=O)c1nsc(Cl)c1Cl)C(C)C (configuration not stated)
 : .	-0.6	5	-7	0%
- COc1cc(CN2CC=C(c3ccc(F)cc3)CC2)cc(OC)c1
 : .	0.4	.	1	.
- CN1CCN(Cc2ccc(N)cc2)CC1
 : .	3.0	-8	-6	-5%
- Cc1ccc(C(=O)N/N=C\c2cccs2)cn1
 : .	-1.9	-3	10	2%
- O=C(Nc1ccc2nc3n(c(=O)c2c1)CCCCC3)c1ccccc1Cl
 : -2	-1.1	-27	2	3%
- COc1ccc(C(C)=O)cc1COC(=O)c1cc(C)oc1C
 : -35	8.3	-9	4	1%
- CCOCCCNC(=O)CN1C(=O)COc2ccc(S(=O)(=O)N3CCOCC3)cc21
 : .	2.3	.	3	.
- Cc1ccc(CNc2nc3c([nH]2)c(=O)n(C)c(=O)n3C)cc1
 : -34	-7.7	4	1	-2%
- COc1ccccc1N(CN1CCCC1=O)C(=O)COc1ccccc1
 : 7	0.7	-4	?	-9%

Other records follow:
Each structure is followed by: YopH inh	RecA splice inh	Arbovirus inh	Mtb bLac sens	Mtb H37Rv
- CC(=O)n1cc([C@@H]2C=C(C(=O)N3CCN(Cc4ccc5c(c4)OCO5)CC3)O[C@H](OCCCCO)C2)c2ccccc21
 : .	0.6	-3	74	6%
- O=C(Nc1ccc(S(=O)(=O)N2CCOCC2)cc1)C1CC(=O)N(c2ccc(F)cc2)C1 (configuration not stated)
 : .	-1.4	.	0	.
- O=C(CSc1nc(-c2ccccc2)nc2c1CCCC2)N1CCOCC1
 : -34	0.8	2	-6	-3%
- CCN1CCc2c(OCc3ccc(C)cc3)cccc2C1=O
 : .	2.8	3	-5	.
- O=C(Nc1ccc(N2CCCC2)c(Cl)c1)c1cccnc1
 : -10	-2.7	-2	6	10%
- COc1ccc(CNC2CCCc3ccccc32)cc1OC (configuration not stated)
 : -6	-9.3	5	8	0%
- COc1ccc(OCCNC(=O)C(c2ccccc2)c2ccccc2)cc1
 : -37	-0.5	4	-9	-1%
- COc1ccc(N2CCN(CC(=O)Nc3nc(C)cs3)CC2)cc1
 : .	-8.6	.	5	.
- O=C(NCc1ccc2c(c1)OCO2)C1CCN(S(=O)(=O)c2ccc(F)cc2)CC1
 : .	-0.8	.	2	.
- CCCOP(=O)(OCCC)C(NC(=O)C(C)(C)C)c1ccccc1 (configuration not stated)
 : -7	0.3	-1	57	3%
- COc1ccc(C)cc1-n1nnnc1SCC(=O)NC(=O)NCc1ccco1
 : 35	2.3	15	-7	12%
- CCC(=O)Nc1c(-c2ccc(C)cc2)c(=O)c2ccccc2n1C
 : .	0.0	.	3	.
- COc1ccc(N2CCN(C(=O)CCN3C(=O)C4C5C=CC(C5)C4C3=O)CC2)cc1 (configuration not stated)
 : .	-2.1	0	2	0%
- O=C(O)CC1(O)C(=O)N(Cc2ccccc2)c2ccccc21 (configuration not stated)
 : .	-0.2	-4	-5	-6%
- CCOc1ccc(NS(=O)(=O)c2ccc(OCC(=O)NCCCOC)cc2)cc1
 : 10	-2.6	7	7	-5%

Later entries
Each structure is followed by: YopH inh	RecA splice inh	Arbovirus inh	Mtb bLac sens	Mtb H37Rv
- CCc1ccc(NC(=O)c2ccccc2NC(=O)C2CCCO2)cc1 (configuration not stated)
 : -15	0.4	-4	0	11%
- CN(CCC#N)C(=O)COC(=O)/C=C/c1ccc2c(c1)OCO2
 : .	-1.2	-27	1	-3%
- Cc1ccc(Cn2cnc3c(cnn3-c3ccc(F)cc3)c2=O)cc1
 : .	-4.6	-5	-6	-10%
- Cc1nc(N/N=C/c2ccc(O)cc2)c2cnn(-c3ccccc3)c2n1
 : .	-1.5	-13	62	76%
- Cc1nnc(SCC(=O)Nc2ccccc2C(=O)NC2CC2)s1
 : -33	-1.0	-1	-8	2%
- CCCCNS(=O)(=O)c1ccc2nc(SCC(=O)c3ccccc3OC)[nH]c2c1
 : -24	-0.7	0	-3	-3%
- O=C(Oc1c(CN2CCOCC2)cc(Cl)c2cccnc12)c1ccccc1F
 : .	-2.8	-9	99	30%
- CC(CCc1ccccc1)NCCC#N (configuration not stated)
 : .	-1.3	.	-8	-6%
- O=C(/C=C/NNC(=O)c1ccc(Br)cc1)c1ccccc1
 : 3	10	-23	59	0%
- CCN(C(=O)c1cc2c(=O)n3ccccc3nc2n1CCCOC)C1CCCCC1
 : .	2.0	.	9	.
- Cc1ccc(S(=O)(=O)N2CCCOC2CNC(=O)C(=O)NCCN2CCOCC2)cc1 (configuration not stated)
 : .	-1.8	.	9	.
- Cc1ccc(N2CC(C(=O)Nc3cccnc3)CC2=O)cc1Cl (configuration not stated)
 : .	11	.	1	.
- O=C(NCC(=O)N1CCC(N2CCCCC2)CC1)C1CCCCC1
 : -35	-0.5	16	-2	-10%
- O=S(=O)(c1ccccc1)N1CCN(S(=O)(=O)N2CCCCCC2)CC1
 : .	0.1	.	-8	.
- Cn1c(=O)c2c(nc(OCCc3ccccc3)n2C)n(C)c1=O
 : .	0.8	.	1	1%

(list continues)
Each structure is followed by: YopH inh	RecA splice inh	Arbovirus inh	Mtb bLac sens	Mtb H37Rv
- CC(C(=O)Nc1ccc(F)c(F)c1)N1CCN(C)CC1 (configuration not stated)
 : .	0.2	.	0	.
- FC(F)(F)c1cccc(-c2noc(CN3CCOCC3)n2)c1
 : -26	-2.5	1	-3	-4%
- O=C(c1cccc2c1C(=O)N(Cc1cccnc1)C2)N1CCN(c2ccccc2)CC1
 : -28	0.3	1	-4	-2%
- CC1CCN(CC(CS(=O)(=O)c2ccc([N+](=O)[O-])cc2)N2CCC(C)CC2)CC1 (configuration not stated)
 : .	0.6	.	.	0%
- O=S(=O)(NCCCCCNS(=O)(=O)c1ccc(F)cc1)c1ccc(F)cc1
 : -25	1.1	3	-7	8%
- COc1ccc2nc(NC(=O)C3CC(=O)N(c4ccccc4)C3)sc2c1 (configuration not stated)
 : .	0.5	.	65	.
- O=C(O)Cn1ccc2cc(S(=O)(=O)N3CCCCCC3)ccc21
 : .	-0.6	.	2	.
- CCN(c1ccccc1)S(=O)(=O)c1ccc(C(=O)Nc2nnc(C3CC3)o2)cc1
 : .	-1.8	-25	91	?
- CC(CC(=O)O)CC(=O)Nc1nncs1 (configuration not stated)
 : .	-1.7	.	0	.
- COCCN1CCC(CNCc2c(C(=O)N3CCCCC3)nc3c(C)cccn23)C1 (configuration not stated)
 : .	-3.5	.	1	-6%
- CC1CCCN(C(=O)CCNS(=O)(=O)c2ccc3c(c2)c(=O)n(C)c(=O)n3C)C1 (configuration not stated)
 : .	-0.5	.	2	.
- CCOC(CNC(=O)c1ccc2c(c1)ncn2-c1cccc(F)c1)OCC
 : .	-0.1	4	-6	-7%
- CCc1nnc(NC(=O)CSc2nc(-c3ccccc3)cc(-c3ccc(OC)cc3)c2C#N)s1
 : -1	-1.5	-18	4	8%
- Cc1c(Cl)c([N+](=O)[O-])nn1CC(=O)NC(C)c1ccccc1 (configuration not stated)
 : .	1.7	.	-7	.
- COc1ccc2nc(NC(=O)c3cc(C)oc3C)sc2c1
 : -26	.	5	0	-1%

(listing goes on)
Each structure is followed by: YopH inh	RecA splice inh	Arbovirus inh	Mtb bLac sens	Mtb H37Rv
- COC(=O)c1ccc(C2C(Oc3ccccc3C)C(=O)N2CCc2ccc(OC)c(OC)c2)cc1 (configuration not stated)
 : -11	1.9	-4	-8	3%
- CCOc1ccc(C(=O)NCC(=O)NCC(c2ccc(OC)cc2)N2CCOCC2)cc1OCC (configuration not stated)
 : .	-2.7	.	1	.
- N[C@@H](Cc1c[nH]c2ccccc12)c1nnc(SCc2c(F)cccc2Cl)o1
 : -28	5.7	4	-3	-2%
- COC(=O)/C=C/CSC1=N/C(=C/c2ccc(-n3cncn3)cc2)C(=O)N1
 : -40	0.0	12	4	-9%
- CCC(Cc1ccccc1)NS(=O)(=O)c1csc(C(N)=O)c1 (configuration not stated)
 : .	-0.2	.	5	.
- CC1C(=O)NN=C1C(=O)N/N=C/c1ccco1 (configuration not stated)
 : .	-3.7	10	2	4%
- COc1cccc(S(=O)(=O)N2CCN(Cc3ccc4c(c3)OCO4)CC2)c1
 : .	4.6	.	?	.
- COc1cc(NC2c3ncccc3C(=O)N2Cc2ccco2)cc(OC)c1OC (configuration not stated)
 : .	-0.4	-2	0	-1%
- C#CCOCCOCCOCCNc1nc(N2CCN(C(=O)[C@H](CCCCN)n3cc([C@@H](N)C(C)CC)nn3)CC2)nc(N2CCN(C(=O)[C@H](Cc3ccc(O)cc3)n3cc([C@@H](N)C(C)CC)nn3)CC2)n1 (some centres not stated)
 : .	-1.9	-4	91	25%
- COC(=O)Nc1sccc1C(=O)Nc1sccc1C(=O)OC
 : 15	0.8	-13	2	-7%
- COCCn1c(SCC(=O)c2c(N)n(C)c(=O)n(C)c2=O)nc2ccccc21
 : .	12	3	5	-1%
- Cc1cc(C)c(C(=O)CC(=O)c2ccccc2Cl)c(O)c1
 : .	7.7	.	5	.
- Clc1ccc(-c2nnc(-c3ccccc3)o2)c(Cl)c1
 : -29	1.5	4	6	6%
- Cc1cc(NC(=O)c2cncc(Br)c2)ccc1NC(=O)c1cc2ccccc2o1
 : .	7.1	.	-2	.
- CC(C)n1c(-c2cccnc2)nc2cnccc21
 : -33	-0.8	9	-3	0%

The listing continues:
Each structure is followed by: YopH inh	RecA splice inh	Arbovirus inh	Mtb bLac sens	Mtb H37Rv
- CC(C)(C)c1csc(SCC(=O)Nc2ccc(Cl)cn2)n1
 : -3	8.6	2	-1	3%
- CCOC(=O)CN1C(=O)N[C@@H](c2ccccc2)C(C(C)=O)=C1C
 : 5	.	7	-5	-9%
- O=C(N/N=C/c1c(Cl)[nH]c2ccccc12)c1ccc2c(c1)OCCO2
 : .	5.8	.	2	-8%
- Cc1oc2c(CN3CCOCC3)c(O)ccc2c(=O)c1-c1ccc(Br)cc1
 : 1	1.3	-1	-7	3%
- Cc1nn(-c2ccccc2)c(OC(=O)c2cccs2)c1S(=O)(=O)c1ccccc1
 : -38	9.4	1	45	-5%
- Cc1ccc(NC(=S)NN2CCOCC2)c(C)c1
 : -28	0.5	2	-14	-2%
- Cc1nc(SCC(=O)NC2CCCC2)[nH]c(=O)c1C
 : .	-5.1	.	98	.
- CCCC(=O)N(Cc1cccnc1)c1nc2c(OC)ccc(Cl)c2s1
 : .	-2.1	.	2	.
- O=C(Cc1ccccc1)Nc1ccc2[nH]ncc2c1
 : .	3.1	.	-9	.
- COc1ccc(NC(=O)CN(C)S(=O)(=O)c2ccc3c(c2)CC(C)N3C(C)=O)cc1OC (configuration not stated)
 : .	4.2	.	-7	.
- CC(=O)c1ccccc1OCCOCCOc1ccccc1C(C)=O
 : -20	-3.6	12	0	-10%
- Cc1ccn2c(NC3CCCC3)c(-c3ccncc3)nc2c1
 : .	-4.9	4	-8	-1%
- O=C(NC1CCN(Cc2ccccc2)CC1)c1ccc(Cl)cc1Cl
 : .	2.3	.	1	.
